Compound activity deposited in PubChem by several laboratories.
AF4-AF9 inh: inhibitors of human MLL-AF4/AF9 interaction; P42568; AlphaScreen, biotin-AF4 peptide binding to FLAG-AF9; inhibition, % at 10 µM; 350,000 tested, 0.47% active; AID 651704;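 active = every replicate reaching a set inhibition limit, whatever the replicate mean, cut at about 25% in these data; inconclusive = mean inhibition reaches that limit but some replicates miss it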;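 note: 0% = plate neutral control median and 100% = total signal loss; the record names both 10 and 1 µM as test concentration; the first replicate is given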
Target sequence (P42568 whole entry, looked up): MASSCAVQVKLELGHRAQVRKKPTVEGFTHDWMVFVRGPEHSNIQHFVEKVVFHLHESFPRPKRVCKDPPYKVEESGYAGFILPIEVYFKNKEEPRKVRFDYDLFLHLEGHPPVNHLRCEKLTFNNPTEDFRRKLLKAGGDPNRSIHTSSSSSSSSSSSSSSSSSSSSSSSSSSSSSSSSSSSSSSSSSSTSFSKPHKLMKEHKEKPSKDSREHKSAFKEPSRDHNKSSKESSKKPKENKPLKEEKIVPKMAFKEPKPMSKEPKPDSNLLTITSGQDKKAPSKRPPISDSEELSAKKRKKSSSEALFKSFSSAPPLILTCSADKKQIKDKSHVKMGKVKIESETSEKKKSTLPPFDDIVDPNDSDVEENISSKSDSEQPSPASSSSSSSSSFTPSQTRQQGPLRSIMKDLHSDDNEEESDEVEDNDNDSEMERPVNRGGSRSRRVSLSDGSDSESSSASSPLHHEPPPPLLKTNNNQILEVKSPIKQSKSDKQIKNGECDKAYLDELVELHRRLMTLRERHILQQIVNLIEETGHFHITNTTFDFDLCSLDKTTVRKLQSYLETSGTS
T cruzi repl: T. cruzi replication inhibition | T. cruzi beta-gal in NIH3T3, luminescence, 90 h | inhibition, % (no concentration beside the values) | 300,000 tested, 1.4% active | AID 1885;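 active = mean inhibition across valid replicates above about 55%, limit read from the data; inconclusive = mean below that limit but half or more replicates reach it; inactive = mean below it, under half of replicates reach it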;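 note: signal also drops with host cell toxicity which is not excluded here; 0% = plate median of DMSO wells and 100% = zero luminescence signal; higher percent means less beta-gal luminescence so fewer parasites; stock transfer was 50 nL into about 50 µL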
Vif TR-FRET: inhibitors of Vif binding to APOBEC3G peptide, primary screen, biochemical, TR-FRET, GST-Vif 1-94, biotin-A3G peptide, dose response retest (AID 1117319) | TR-FRET GST-Vif / biotin-A3G peptide binding; higher % means a stronger effect; test concentration not given here; strong numbers were not always called active | one-dose inhibition, %; IC50 in µM for titrated hits | 260,000 tested, 0.57% active;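 active = above the screen mean plus three standard deviations and confirmed in dose response; inconclusive = results disagree or hit not tested in dose response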;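 note: Vif residues 1-94 fused to GST binding biotinylated APOBEC3G peptide 110-148; 0% = full assay without inhibitor and 100% = GST in place of GST-Vif; retest series ran down from 100 µM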
Beta apoptosis: blocks beta cell apoptosis. INS-1E cytokine-induced death, ATP luminescence, 48 h; percent of positive-control rescue, neutral wells zero. 300,000 tested, 0.8% active. protection from apoptosis, % (concentration not given with the values). AID 435005;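 active = all replicates at 75% or more, or half of them and the mean; inconclusive = half reach 75% but not the mean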;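 note: 0% = cytokine-treated negative control wells and 100% = positive control rescue; higher means more ATP so stronger rescue from cytokine killing; wells of about 40 µL received 100 nL stock; the first replicate is given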
Bfl-1 A1 inh: inhibitors of the anti-apoptotic protein A1, read as caspase activation; MEF A1-2A-BIM cells, Caspase-Glo 3/7 luminescence, 3 h; percent of clofoctol response, vehicle zero; caspase activation, % (test concentration not listed); 330,000 tested, 0.066% active;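 active = over half of replicate activation scores above 10%, or exactly half above 10 with the replicate mean above 10; inconclusive = replicate mean below 10 yet half the replicates above 10; inactive = over half of replicates below 10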;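 note: wells of about 30 µL received 50 nL stock; many hits fall short of the cut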
Calb FLC: C. albicans growth modulation with fluconazole. C. albicans CaCi-2 (fluconazole-resistant clinical isolate) + fluconazole, Alamar Blue growth, 48 h. growth inhibition, % (no concentration beside the values). 300,000 tested, 0.57% active. AID 1979;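 active = most replicates above 75%; inconclusive = exactly half above 75%; inactive = most below 75%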;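 note: all wells also contain fluconazole at 8 µg/ml as a sub-toxic cotreatment; 0% = median of DMSO wells and 100% = median of geldanamycin control wells; wells of about 8 µL received 7.5 nL stock; the first replicate is given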
LANA-H2B inh: blocks KSHV LANA binding to histone H2A/H2B | cell-free LANA-H2A/H2B peptide, fluorescence polarization | inhibition, % (no concentration beside the values) | AID 2629 | 320,000 tested, 0.6% active | Q9QR71; in the data active = inhibition mostly above about 10%, no sharp cut-off; inactive = mostly below about 6.7%;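 note: stock transfer was 7.5 nL into about 10 µL; 0% = median of vehicle wells and 100% = median of positive control wells; one replicate is shown; the record names a cut of 25% in any replicate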
RanGTP-Impb inh: inhibitors of RanGTP-importin-beta interaction, primary screen, biochemical, FRET, CFP-Ran, YFP-importin-beta, homogeneous; 300,000 tested, 1.1% active; cell-free CFP-Ran/YFP-importin-beta FRET ratio; AID 2216; inhibition, % (test concentration not listed);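 active = most replicates above 15%; inconclusive = exactly half above 15%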;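 note: 0% = DMSO wells and 100% = Ran loaded with GDP instead of GTP; wells of about 40 µL received 100 nL stock; the first replicate is given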
* = called active by the depositor; & = joins results of further samples.

Screening COC(=O)CCN(c1ccccc1)S(=O)(=O)c1cc(-c2cc(C)no2)ccc1C returned AF4-AF9 inh -7.2, T cruzi repl -8, Beta apoptosis -5, Bfl-1 A1 inh 0.5, Calb FLC 24, LANA-H2B inh -3.1 and RanGTP-Impb inh -2.3.
For CC1=C(C(=O)O)N2C(=O)C(NC(=O)c3ccn(C)n3)C2SC1 (stereo not given) the results were T cruzi repl -26, Vif TR-FRET 12%, Beta apoptosis 22, Bfl-1 A1 inh 1.1, Calb FLC -5, LANA-H2B inh 1.1 and RanGTP-Impb inh -3.3.
`CCn1cc(CN2CCCC(C(=O)Nc3cccc(-n4cccn4)c3)C2)c(C)n1` (stereo not given) gave AF4-AF9 inh 2.3, T cruzi repl 43, Beta apoptosis -1, Bfl-1 A1 inh 0.2, Calb FLC -3, LANA-H2B inh 2.5 and RanGTP-Impb inh -0.2.
Screening O=C(Cn1cnc2ccccc21)N/N=C/c1cccs1 returned T cruzi repl -12, Vif TR-FRET 6%, Beta apoptosis 1, Bfl-1 A1 inh -0.7, Calb FLC -2, LANA-H2B inh 0.2 and RanGTP-Impb inh -2.6.
`Cc1csc(SCCn2c(N3CCCC3)nc3c2c(=O)[nH]c(=O)n3C)n1` gave T cruzi repl -11, Vif TR-FRET -5%, Beta apoptosis 5, Bfl-1 A1 inh 0.1, Calb FLC 10, LANA-H2B inh -13 and RanGTP-Impb inh -0.5.
Screening Cc1nc2nc(-c3ccccc3)nn2c(C)c1Cl returned T cruzi repl -16, Vif TR-FRET -2%, Beta apoptosis 8, Bfl-1 A1 inh -6.6, Calb FLC -1, LANA-H2B inh 1.7 and RanGTP-Impb inh 1.8.
CC(C)(C)n1nc(C2CC2)cc1NC(=O)Nc1ccc(Cl)cc1 was read as AF4-AF9 inh -1.6, T cruzi repl inconclusive, Vif TR-FRET 0%, Beta apoptosis 0, Bfl-1 A1 inh -0.7, Calb FLC 1, LANA-H2B inh 6.3 and RanGTP-Impb inh 3.1.
Clc1nc(Nc2ccccc2)nc(Nc2ccccc2)n1 was read as T cruzi repl -3, Vif TR-FRET 16%, Beta apoptosis 5, Bfl-1 A1 inh -0.1, Calb FLC 1, LANA-H2B inh -2.9 and RanGTP-Impb inh -2.0.
Cc1cc(S(=O)(=O)NCC(C)C)ccc1OCC(=O)N1CCOCC1 was read as T cruzi repl -8, Vif TR-FRET 0%, Beta apoptosis -11, Bfl-1 A1 inh 0.9, Calb FLC 0, LANA-H2B inh -3.2 and RanGTP-Impb inh -0.8.
`CCOC(=O)CNC(=O)Cn1cnc2c(nnn2-c2ccc(OC)cc2)c1=O` gave AF4-AF9 inh -4.2, T cruzi repl -5, Vif TR-FRET 1%, Bfl-1 A1 inh 0.6, Calb FLC 5, LANA-H2B inh 6.5 and RanGTP-Impb inh -3.2.
O=C(COc1cccnc1[N+](=O)[O-])Nc1ncc(Cl)cc1Cl was read as AF4-AF9 inh -0.3, Beta apoptosis 6, Bfl-1 A1 inh -0.6 and LANA-H2B inh -4.0.
CCOC(=O)C1=C(CN2CCN(CCC#N)CC2)NC(=O)NC1c1ccc2c(c1)OCO2 (stereo not given) was read as AF4-AF9 inh 0.8, T cruzi repl -1, Vif TR-FRET inconclusive, Beta apoptosis 0, Bfl-1 A1 inh 0.8, Calb FLC -2, LANA-H2B inh -2.2 and RanGTP-Impb inh -1.6.
For CCOC(=O)CSC1=Nc2ccccc2C2=NC(CC(=O)NCc3ccccc3)C(=O)N12 (stereo not given) the results were T cruzi repl -6, Vif TR-FRET inconclusive, Beta apoptosis -2, Bfl-1 A1 inh 0.6, Calb FLC 0, LANA-H2B inh 4.0 and RanGTP-Impb inh -2.6.
Screening COCCNC(=O)[C@H](CSCc1ccccc1)N1Cc2ccccc2C1=O returned AF4-AF9 inh 1.4, T cruzi repl -1, Vif TR-FRET 1%, Beta apoptosis -2, Bfl-1 A1 inh -0.2, Calb FLC -6, LANA-H2B inh 3.6 and RanGTP-Impb inh 1.3.
O=C(NNC(=S)NC1CCCCC1)c1ccc2c(c1)OCO2 was read as AF4-AF9 inh 3.0, T cruzi repl -5, Vif TR-FRET 15%, Beta apoptosis 10, Bfl-1 A1 inh -0.4, Calb FLC -9, LANA-H2B inh -4.7 and RanGTP-Impb inh inconclusive.
`COc1cc(CN2CCNC(=O)C2CC(=O)NCCCC2CCCC2)cc(OC)c1` (stereo not given) gave AF4-AF9 inh -2.6, T cruzi repl 3, Calb FLC -17 and RanGTP-Impb inh -1.2.
CCc1cc2c(=O)c(-c3ccc4c(c3)OCCO4)coc2cc1OC(=O)c1ccco1 was read as T cruzi repl 7, Vif TR-FRET -3%&4%, Bfl-1 A1 inh -8.4, Calb FLC 0, LANA-H2B inh -1.2 and RanGTP-Impb inh -2.2.
For COc1ccc(-c2nc(CS(=O)CC(=O)N3CCCC3)c(C)o2)cc1 (stereo not given) the results were AF4-AF9 inh 5.7, T cruzi repl -12, Vif TR-FRET -1%, Beta apoptosis -4, Bfl-1 A1 inh -0.6, Calb FLC -13, LANA-H2B inh 4.5 and RanGTP-Impb inh -1.0.
O=C(NCc1ccccc1)c1ccc(OC2CSC2)cc1 was read as T cruzi repl -4, Vif TR-FRET -3%, Beta apoptosis 3, Bfl-1 A1 inh -0.1, Calb FLC -9, LANA-H2B inh 0.4 and RanGTP-Impb inh -2.2.
Screening COc1ccc(CCN=C(N)NS(=O)(=O)c2ccc(C)cc2)cc1 returned T cruzi repl 4, Vif TR-FRET 75%, Beta apoptosis -1, Bfl-1 A1 inh 0.9, Calb FLC -2, LANA-H2B inh -3.4 and RanGTP-Impb inh 11.

The list goes on, overlapping the part above by 2 compounds.
O=C(NCc1ccccc1)c1ccc(OC2CSC2)cc1 was read as T cruzi repl -4, Vif TR-FRET -3%, Beta apoptosis 3, Bfl-1 A1 inh -0.1, Calb FLC -9, LANA-H2B inh 0.4 and RanGTP-Impb inh -2.2.
Screening COc1ccc(CCN=C(N)NS(=O)(=O)c2ccc(C)cc2)cc1 returned T cruzi repl 4, Vif TR-FRET 75%, Beta apoptosis -1, Bfl-1 A1 inh 0.9, Calb FLC -2, LANA-H2B inh -3.4 and RanGTP-Impb inh 11.
`O=C(CCc1nc2ccccc2[nH]1)Nc1ccccc1` gave T cruzi repl 9, Vif TR-FRET 7%, Beta apoptosis -4, Bfl-1 A1 inh -0.1, Calb FLC -1 and RanGTP-Impb inh inconclusive.
`CCCCSc1nnc([C@@H]2CCCN2C(=O)OC(C)(C)C)o1` gave T cruzi repl 6, Vif TR-FRET -2%, Beta apoptosis 0, Bfl-1 A1 inh 0.1, Calb FLC 1, LANA-H2B inh -2.6 and RanGTP-Impb inh 2.6.
For O=C(O)CCC(=O)Nc1ccc(OCC(=O)O)cc1 the results were T cruzi repl -12, Vif TR-FRET inconclusive, Beta apoptosis -8, Bfl-1 A1 inh 0.1, Calb FLC -4, LANA-H2B inh -2.1 and RanGTP-Impb inh 1.8.
`COc1ccc(NC(=O)Nc2ccc(OC)c(OC)c2)c([N+](=O)[O-])c1` gave AF4-AF9 inh -0.3, T cruzi repl -10, Beta apoptosis 0, Bfl-1 A1 inh 2.0, Calb FLC -6, LANA-H2B inh 5.6 and RanGTP-Impb inh -0.7.
For O=C(O)CCn1cc(/C=C2\SC(=S)NC2=O)c(-c2ccccc2)n1 the results were AF4-AF9 inh -2.1, T cruzi repl -13, Vif TR-FRET -10%, Beta apoptosis -2, Bfl-1 A1 inh 0.2, Calb FLC 2, LANA-H2B inh -2.3 and RanGTP-Impb inh inconclusive.
Screening Cc1cc(C)n(CC(=O)n2c3ccccc3c3ccccc32)n1 returned T cruzi repl 1, Vif TR-FRET 4%, Beta apoptosis 0, Bfl-1 A1 inh 0.5, Calb FLC -6, LANA-H2B inh -2.1 and RanGTP-Impb inh 2.5.
For CS(=O)(=O)Nc1cccc(C2=NN(S(=O)(=O)c3ccccc3)C(c3cccs3)C2)c1 (stereo not given) the results were AF4-AF9 inh -0.4, T cruzi repl -13, Vif TR-FRET 0%, Beta apoptosis 1, Bfl-1 A1 inh 1.2, Calb FLC 4, LANA-H2B inh 5.5 and RanGTP-Impb inh -2.6.
O=C(O)c1ccc(/C=C2\SC(=S)N(NC(=O)c3ccccc3)C2=O)cc1 was read as AF4-AF9 inh -1.5, T cruzi repl -8, Vif TR-FRET 4%, Bfl-1 A1 inh -1.2, Calb FLC -1, LANA-H2B inh 0.1 and RanGTP-Impb inh 1.4.
`COC(=O)c1cc(=O)n(C2CC2)c(=NC2CC2)s1` gave T cruzi repl -14, Vif TR-FRET 4%, Beta apoptosis 1, Bfl-1 A1 inh 0.1, Calb FLC -5, LANA-H2B inh 4.7 and RanGTP-Impb inh -2.4.
For Cc1ccc(N2CC(C(=O)OCc3nnc(-c4ccccc4)o3)CC2=O)cc1 (stereo not given) the results were AF4-AF9 inh -14, T cruzi repl -11, Vif TR-FRET -3%, Beta apoptosis -5, Bfl-1 A1 inh 0.2, LANA-H2B inh -8.0 and RanGTP-Impb inh 0.2.
For CCCCNC(=O)c1ccc(CS(=O)(=O)c2ccc(OC)cc2)o1 the results were AF4-AF9 inh -2.0, T cruzi repl -8, Vif TR-FRET 9%, Beta apoptosis -6, Bfl-1 A1 inh 1.1, Calb FLC 0, LANA-H2B inh 2.6 and RanGTP-Impb inh -2.9.
`CC1CCCCN1c1nc2nonc2nc1N1CCCCC1C` (stereo not given) gave T cruzi repl 5, Vif TR-FRET -8%, Beta apoptosis 0, Bfl-1 A1 inh 0.3, Calb FLC 7, LANA-H2B inh -5.4 and RanGTP-Impb inh 4.8.
`CCOC(=O)/C(C#N)=C/Nc1cc(F)ccc1C` gave AF4-AF9 inh 0.2, T cruzi repl -1, Beta apoptosis 3, Bfl-1 A1 inh 0.0, Calb FLC 0, LANA-H2B inh -0.2 and RanGTP-Impb inh 1.2.
For CC1CCCCN1S(=O)(=O)c1ccccc1[N+](=O)[O-] (stereo not given) the results were AF4-AF9 inh 4.2, T cruzi repl -13, Vif TR-FRET -1%, Beta apoptosis -2, Bfl-1 A1 inh 0.2, Calb FLC 1, LANA-H2B inh 3.9 and RanGTP-Impb inh -1.5.
For COc1ccc2cc(CCNC(=O)c3ccc(Br)o3)c(=O)[nH]c2c1 the results were AF4-AF9 inh 1.3, T cruzi repl 4, Vif TR-FRET 10%, Beta apoptosis 1, Bfl-1 A1 inh -0.4, Calb FLC 13, LANA-H2B inh -1.2 and RanGTP-Impb inh 5.4.
For Cc1cc(NC(=O)c2cccc(S(=O)(=O)N3CCOCC3)c2)c2ccccc2n1 the results were T cruzi repl -13, Vif TR-FRET 4%, Beta apoptosis 1, Bfl-1 A1 inh 0.2, Calb FLC 19, LANA-H2B inh -3.5 and RanGTP-Impb inh 7.8.
`CC(=O)Nc1ccc(C(=O)NC(C)c2ccc(-n3ccnc3)cc2)cc1` (stereo not given) gave AF4-AF9 inh -8.2, T cruzi repl -12, Beta apoptosis -2, Bfl-1 A1 inh 1.6, Calb FLC 1, LANA-H2B inh 2.0 and RanGTP-Impb inh 6.5.
